PINK1 expr mod: modulators of PINK1 expression | 0.2% of 410,000 active | AID 624263 | Potency, µM (series often up to 76.6 µM), inactives show top-dose activation (PINK1 increase), most hits filed as activators | PINK1 immunofluorescence, high-content cytometry, 24 h; active = well fitted activation curve with a large enough effect; inconclusive = small, poorly fitted or top-dose-only effect; inactive = flat fitted curve, though single readings scatter; cell line not stated here;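 note: potency is the fitted concentration of half-maximal effect; % of control where 0% means no effect; nearly all actives have a fitted effect of over 65% in size; a mitochondrial uncoupler was the plate control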
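Measures PINK1 amount and localization on or inside mitochondria by immunofluorescence. Stable cells get compounds at 5 concentrations for 24 hours before fixation and staining; CCCP controls included.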
D2 agonist: human D2 receptor agonism in beta-arrestin assay. P14416. DiscoveRx PathHunter D2 beta-arrestin, luminescence, 90 min; 100% = 57 uM dopamine signal. activation, % (test concentration not listed). 0.084% of 360,000 active. AID 624465; in the data active = activation above about 40%; inconclusive = about 15% to 40%; inactive = below about 15%; note: compound concentration not given in the record; the text of the record calls up to 30% inactive
Target sequence (P14416 whole entry, looked up): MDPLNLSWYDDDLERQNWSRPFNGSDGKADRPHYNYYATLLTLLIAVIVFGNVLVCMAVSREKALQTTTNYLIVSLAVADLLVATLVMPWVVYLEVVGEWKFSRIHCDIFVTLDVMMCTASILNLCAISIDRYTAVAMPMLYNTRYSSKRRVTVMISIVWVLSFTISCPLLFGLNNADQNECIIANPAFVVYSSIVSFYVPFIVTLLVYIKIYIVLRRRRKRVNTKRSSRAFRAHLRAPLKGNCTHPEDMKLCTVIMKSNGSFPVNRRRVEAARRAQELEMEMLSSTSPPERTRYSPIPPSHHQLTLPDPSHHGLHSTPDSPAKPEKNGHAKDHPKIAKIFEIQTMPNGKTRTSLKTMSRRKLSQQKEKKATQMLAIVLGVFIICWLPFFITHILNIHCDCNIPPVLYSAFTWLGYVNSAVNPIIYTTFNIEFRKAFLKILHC
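DiscoveRx PathHunter D2 beta-arrestin cells (2,100/well) attached overnight, then compound-stimulated 90 min at 37 C in HBSS/10 mM HEPES/0.1% Tween-20 buffer; beta-galactosidase complementation read by luminescence after 1 h at ambient temperature. Dopamine 57 uM final (EC100) as control.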
Six1-Eya2 blk: inhibitors of human Six1/Eya2 interaction. Q15475+O00167. AlphaScreen GST-Six1/His-Eya2 binding, biochemical; hits give low values; control for the full effect not named in the record. activity change, % (concentration not given with the values). 0.56% of 360,000 active. AID 651725; in the data active = activity change below about -65%; inconclusive = about -30% to -65%; inactive = above about -30%; note: % is set by controls: 0 for no effect and ±100 for the full control effect
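AlphaScreen with GST-Six1 and His-Eya2 (5X mix: 250 nM and 500 nM), glutathione donor and nickel acceptor beads; buffer 50 mM Tris pH 8.0, 300 mM NaCl, 1 mM TCEP; 1 h at 37 C in the dark.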
CtBP-E1A blk: blocks the CtBP interaction with E1A. AlphaScreen GST-E1A/His-CtBP binding, 1536-well; hits give low values; control for the full effect not named in the record. activity change, % (no concentration beside the values). 0.49% of 340,000 active; in the data active means activity change below about -65%; inconclusive means about -30% to -65%; inactive means above about -30%; note: % is set by controls: 0 for no effect and ±100 for the full control effect; compound concentration not given in the record
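Steps: dispense buffer (Tris pH 8.0, NaCl 300 mM, TCEP 1 mM, BSA, Tween 20); add 5X protein mix (GST-E1A, His-CtBP, 125 nM each); pin 23 nL compound; 2 h at 37 °C, dark; add 5X beads (50 ug/mL); 1 h; read.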
D2 PAM: human D2 receptor positive allosteric modulation; P14416; DiscoveRx D2 beta-arrestin cells, luminescence, 90 min; 100% = 57 uM dopamine signal; potentiation, % (concentration not given with the values); 0.23% of 360,000 active; AID 624464; active = potentiation of 50% or more; inconclusive = 30% to 50%; inactive = 30% or less;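 note: compound concentration not given in the record; tested on top of an EC20 dose of dopamine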
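PathHunter D2 cells, attached overnight at 37 deg C, received compound in DMSO plus dopamine at EC20 (50 nM final) for 90 min at 37 deg C. Beta-arrestin recruitment was read as luminescence after 1 h with detection reagent at ambient temperature.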
TRPML1 agonist: human mucolipin-1 channel agonism; TRPML1-expressing cells, Ca2+ dye fluorescence, FDSS; host cell line not named in the record; reference of the full effect not given here; 0.12% of 410,000 active; Q9GZU1; activation, % (no concentration beside the values); in the data active = activation above about 50%; inconclusive = about 30% to 50%; inactive = below about 30%; note: 0% is about no effect; the text of the record puts the active cut at 80%
Target sequence (Q9GZU1 whole entry, looked up): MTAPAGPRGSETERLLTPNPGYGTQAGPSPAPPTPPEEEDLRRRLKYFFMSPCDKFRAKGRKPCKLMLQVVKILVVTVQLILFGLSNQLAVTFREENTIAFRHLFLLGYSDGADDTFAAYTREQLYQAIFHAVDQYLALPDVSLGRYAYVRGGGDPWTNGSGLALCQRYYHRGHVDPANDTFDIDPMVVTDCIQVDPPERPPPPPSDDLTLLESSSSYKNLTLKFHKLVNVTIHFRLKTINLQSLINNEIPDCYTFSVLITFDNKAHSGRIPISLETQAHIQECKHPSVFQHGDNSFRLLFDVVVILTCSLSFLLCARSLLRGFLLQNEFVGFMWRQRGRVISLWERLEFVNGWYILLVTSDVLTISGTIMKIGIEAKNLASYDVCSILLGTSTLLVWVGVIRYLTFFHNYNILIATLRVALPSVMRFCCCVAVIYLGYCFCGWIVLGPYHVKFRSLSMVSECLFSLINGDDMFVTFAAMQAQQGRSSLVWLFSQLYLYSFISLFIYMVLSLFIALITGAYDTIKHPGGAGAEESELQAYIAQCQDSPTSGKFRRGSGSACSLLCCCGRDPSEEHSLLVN
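TRPML1-DL cells, Tet-induced overnight (~16 h, 37 degrees C), loaded 45-90 min at room temperature with Ca8 no-wash calcium dye plus quencher. FDSS fluorescence: 10 s baseline, compound pin-transfer, 110 s agonist read, then EC80 54-4 (4uM final) and 110 s antagonist read.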
The depositor's hits bear a star; ? = inconclusive; . = no result given; & = joins results of further samples; [ ] = remark or other dose.

SMILES	PINK1 expr mod	D2 agonist	Six1-Eya2 blk	CtBP-E1A blk	D2 PAM	TRPML1 agonist
NC(=O)NC(CC(=O)OCC(=O)NC(=O)NCc1ccco1)c1ccc(Cl)cc1 (stereo not drawn)	2.0%	-1.2	-6	-1	-3	-0.7
COc1ccc(-n2c(=S)[nH]c3cc(C(=O)NCc4ccccc4OC)ccc3c2=O)c(OC)c1	2.1%	1.6	-9	-16	-7	0.4
O=C(COC(=O)CCc1ccc(S(=O)(=O)N2CCOCC2)cc1)Nc1ccc(Cl)cn1	0.5%	-8.8	6	6	0	0.0
O=C(CN1CCN(S(=O)(=O)c2ccccc2)CC1)Nc1ccc2c(c1)CCC2	-0.6%	-5.4	0	-1	-14	-0.2
COc1ccc(CNS(=O)(=O)c2ccc3c(c2)C(C)(C)C(=O)N3C)cc1	-1.3%	-5.6	2	0	-9	0.1
COc1cc(/C=N/NC(=O)CC2(C)OCCO2)cc(Br)c1O	2.8%	-5.5	-6	.	-3	0.4
CCOC(=O)C(C(=O)OCC)C(=O)c1cccc2ccc3ccccc3c12	-0.5%	-0.5	8	-17	-7	-0.2
COCCNC(=O)C(c1ccco1)N(C(=O)Cn1nnc2ccccc21)c1ccccc1C (stereo not drawn)	-1.2%	-1.8	5	7	-22	0.0
CCc1ccc(N2CN(Cc3cccnc3)CNC2=S)cc1	-0.6%	-1.8	11	2	-6	-0.5
Cc1cccc(Cn2ccc(-c3ccc(Cl)cc3)c(C#N)c2=O)c1	11%	-2.1	-2	-4	-11	-0.5
O=C(COC(=O)CC1CC2CCC1C2)NCc1ccc(Cl)cc1 (stereo not drawn)	1.7%	-3.7	7	10	-7	-0.6
CCOc1cc(/C=C2\C(=N)N3N=CSC3=NC2=O)ccc1OS(=O)(=O)c1ccccc1	-0.2%	-0.8	-20	-10	-7	-0.3
CC(C)Cc1nc2sc3c(SCC(N)=O)ncnc3c2c2c1CCC2	4.6%	-3.5	-16	-22	-5	0.2
Cc1ccc2cc3c(N)[nH]nc3nc2c1	-0.6%	0.5	0	-1	10	2.2
CC(C)(C)C(=O)NC(=S)Nc1ccccc1N1CCCC1	1.2%	-0.1	?	-22	-5	2.1
O=C(Nc1ccccc1N1CCOCC1)c1cccc2ccccc12	-0.7%	-0.8	-1	0	1	-0.6
CN(C(=O)COC(=O)c1ccc(S(=O)(=O)N2CCCCCC2)cc1)c1ccccc1	0.1%	1.9	-12	0	-7	-0.7
Clc1ccc(OCc2nc(-c3ccncc3)no2)c(Cl)c1	3.5%	3.0	12	10	20	-0.5
O=C(CSc1nc(NS(=O)(=O)c2ccccc2)cc(=O)[nH]1)Nc1ccc(Cl)cc1	0.4%	1.9	?	0	-14	-0.5
O=C1CCN(Cc2ccccc2)C=C1c1ccc(Br)cc1	2.9%	0.7	-6	-28	-5	-1.1
COc1ccccc1OCC(=O)Nc1ccc(S(=O)(=O)Nc2nccs2)cc1	1.4%	0.6	-26	-5	-7	-0.5
CCCCNC(=S)N1CCC(Cc2ccccc2)CC1	-1.2%	-5.6	4	21	-5	3.7
CN1/C(=C\C(=O)CN2C(=O)NC3(CCCCCC3)C2=O)C(C)(C)c2ccccc21	-1.1%	0.3	0	0	-19	1.1
COc1cc2nc(NC(=O)c3ccco3)sc(=O)c2cc1OC	1.8%	-1.3	10	-6	-1	1.7
COc1ccc(C(C)=O)cc1CSc1nnc(SCc2cc(C(C)=O)ccc2OC)s1	2.5%	-5.4	-4	-11	-11	-0.7
Cc1ccc(CCCNC(=O)C2CCC(=O)N(Cc3cccc(F)c3)C2)cc1 (stereo not drawn)	-0.3%	0.6	7	-13	-5	1.1
CCN1C(=O)[C@@H]2[C@@H](c3ccc(-c4ccccc4)cc3)N3CCCC[C@@]3(C(=O)OC)[C@@H]2C1=O	2.7%	-0.6	-4	-5	-4	1.6
CCCOc1ccc2ccccc2c1/C=N/n1c(C)nnc1-n1nc(C)cc1C	-0.3%	3.2	-8	-2	-1	0.7
Cc1ccc(C(=O)COC(=O)c2ccc(-c3cnc4ccccc4n3)cc2)cc1C	7.9%	2.1	3	3	-10	0.1
CCN1C(=O)[C@@H]2[C@@H]3CN(S(=O)(=O)c4ccc(C)cc4)[C@@H](c4ccccc4Cl)[C@@H]3C(=O)C[C@@H]2C1=O	1.5%	-6.4	0	-5	-6	?
CN(C(=O)c1ccc(NC(=O)Cc2ccc([N+](=O)[O-])cc2)cc1)C1CC1	2.6%	-3.5	-3	5	-6	5.0
CC1CCN(C(=O)CSc2nc(N)cc(N)n2)CC1	16%[38.3 µM]	-4.1	2	2	-12	-0.7
COc1ccc2c(=O)c3c(=O)n(CCc4ccccc4)c(C(C)C)nc3oc2c1	-0.2%	0.5	5	8	-1	2.2
Cc1ccc(C)c(NC(=S)N2CCC(NC(=O)c3ccccc3)CC2)c1	0.1%	-7.0	-8	0	-12	-0.5
O=C(NCCNS(=O)(=O)c1ccc(Cl)cc1)c1cc(OCC(F)(F)F)ccc1OCC(F)(F)F	10%	-2.2	-8	-7	-23	4.2
CN(C(=O)C1CCN(c2ncnc3c2nc2n3CCCCC2)CC1)C1CCCCC1	0.7%	3.5	-3	-6	-2	0.0
CCC(C)(C)NC(=O)c1ccc2c(c1)N(CC(=O)NC1CCCC1)C(=O)C(C)(C)O2	-0.1%	-5.7	-7	2	-12	-0.6
CSc1nc(N)nc(SCC(=O)OC(C)C)c1C#N	1.7%[38.3 µM]	-3.1	1	2	-6	-0.3
Cc1oc(C)c(C(N)=O)c1C(N)=O	4.7%	3.3	10	5	0	-0.6
CC(C)(C)NC(=O)C1CCCN(S(=O)(=O)c2ccc(-n3cnnn3)cc2)C1 (stereo not drawn)	0.4%	1.2	4	8	-5	-0.3
Cc1cc(S(=O)(=O)N2CCOCC2)ccc1OCC(=O)N1CCC(C(N)=O)CC1	1.8%	-2.8	42	3	-1	0.4
COc1ccc(Nc2ccc(C(F)(F)F)cc2[N+](=O)[O-])cn1	2.8%	3.4	?	?	9	-0.4
O=C(Nc1cc(S(=O)(=O)N2CCOCC2)ccc1Oc1ccc(F)cc1)C1=COCCO1	1.3%	-2.9	-11	-2	-18	0.6
O=C1CCc2cc(S(=O)(=O)N3CCN(c4cccc(Cl)c4)CC3)ccc2N1	7.4%[38.3 µM]	1.7	5	0	8	3.3
Cc1ccc(SCC(=O)NNC(=O)c2ccc(S(C)(=O)=O)cc2)cc1	1.0%	-5.5	13	-9	-1	0.1
O=C(NCCCCNC(=O)c1ccc(Br)cc1)c1ccc(Br)cc1	?	-6.3	11	19	-3	1.0
O=C(N[C@H]1CCC(=O)N(CCSc2ccc(Br)cc2)CC1)OCc1ccccc1	1.5%	-0.4	1	2	2	-0.1&1.4
Cc1cc(C(=O)CSc2n[nH]c(N)n2)c(C)n1C1CC1	0.3%	-5.0	1	-5	0	-0.1
Cc1onc(-c2ccccc2)c1C(=O)OCCOc1cccc(Cl)c1	1.7%	-2.5	35	49	1	5.8
O=C(NCc1ccc2c(c1)OCO2)c1c(O)nc2sccn2c1=O	0.0%	-0.4	3	6	-3	1.6
CCOC(=O)N1CCN(Cc2ccc3c(c2)OCO3)CC1	0.3%	53*	13	-3	?	0.2
C[C@@H]1CN([C@H](C)CO)C(=O)CCCn2cc(nn2)CO[C@H]1CN(C)C(=O)Nc1ccc2c(c1)OCCO2	2.1%	-9.0	4	5	-9	-0.1
Cc1cc(Cl)ccc1NC(=O)C(=O)N/N=C/c1ccc2c(c1)OCO2	10%	-3.9	5	2	-6	0.7
CCOC(=O)c1sc(=NC(=O)c2ccc(OC(C)C)cc2)n(C)c1C	4.0%	3.1	5	1	0	0.7
N#C/C(=C1\CCCN1)c1nc(-c2ccccc2)cs1	7.1%[38.3 µM]	-1.0	-9	4	-16	1.3
O=C1CCc2cc(S(=O)(=O)N3CCCCC3)cc3c2N1CCC3	2.7%	-1.5	9	-12	-2	4.4
O=C1C(=O)N(c2nccs2)C(c2ccccc2F)/C1=C(\O)c1ccc2c(c1)OCCO2 (stereo not drawn)	-0.4%	-5.4	-3	1	-6	0.7
O=C1N(c2ccccc2)C(c2ccccc2)N2CCCN12 (stereo not drawn)	-0.4%	-1.4	10	.	-16	-0.7
CCN(Cc1ccccc1)C(=O)c1cc(-c2ccc(OC)c(OC)c2)nc2ccccc12	-0.5%	14	-1	-1	3	3.0
O=C(CSc1nnc2scc(-c3ccccc3)n12)NCC1CCCO1 (stereo not drawn)	4.4%[38.3 µM]	-0.7	0	6	0	0.3

Quoted at random: two records from the list.
SMILES	PINK1 expr mod	D2 agonist	Six1-Eya2 blk	CtBP-E1A blk	D2 PAM	TRPML1 agonist
O=C1N(c2ccccc2)C(c2ccccc2)N2CCCN12 (stereo not drawn)	-0.4%	-1.4	10	.	-16	-0.7
O=C(N[C@H]1CCC(=O)N(CCSc2ccc(Br)cc2)CC1)OCc1ccccc1	1.5%	-0.4	1	2	2	-0.1&1.4

Profiles from above.
`O=C(NCc1ccc2c(c1)OCO2)c1c(O)nc2sccn2c1=O` across the screens: PINK1 expr mod: 0.0%; D2 agonist: -0.4; Six1-Eya2 blk: 3; CtBP-E1A blk: 6; D2 PAM: -3; TRPML1 agonist: 1.6
`CCOC(=O)N1CCN(Cc2ccc3c(c2)OCO3)CC1` across the screens: PINK1 expr mod: 0.3%; D2 agonist: 53*; Six1-Eya2 blk: 13; CtBP-E1A blk: -3; D2 PAM: ?; TRPML1 agonist: 0.2
`Cc1cc(C(=O)CSc2n[nH]c(N)n2)c(C)n1C1CC1` across the screens: PINK1 expr mod: 0.3%; D2 agonist: -5.0; Six1-Eya2 blk: 1; CtBP-E1A blk: -5; D2 PAM: 0; TRPML1 agonist: -0.1

(next part)
SMILES	PINK1 expr mod	D2 agonist	Six1-Eya2 blk	CtBP-E1A blk	D2 PAM	TRPML1 agonist
Cc1c(C(=O)N2CCN(c3ccccn3)CC2)sc2ncnc(N3CCOCC3)c12	-0.9%[38.3 µM]	0.4	0	2	-7	0.3
CC1(C(=O)NS(=O)(=O)c2ccccc2C(F)(F)F)CCN1C(=O)CC1CCCC1 (stereo not drawn)	0.2%	6.4	9	-12	1	-0.1
Cc1ccc(SCC(=O)OCC(=O)NC2CCCCCC2)cc1	-0.1%	5.8	4	10	-5	0.3
COc1ccc(-c2sc3ccc(OC)cc3c2C#CCCO)cc1	4.5%	-2.7	2	2	-10	-0.3
OCCNc1nc2ccccc2n1-c1ccccc1	3.1%[38.3 µM]	-1.6	6	5	8	0.4
O=C(c1cccs1)N(c1cccc(Cl)c1)C1C=CS(=O)(=O)C1 (stereo not drawn)	-0.9%	-6.4	-5	.	-3	1.3
CC(C)(C)CC(C)(C)NC(=O)/C=C/C(=O)O	-1.5%	-1.9	-2	-5	-4	0.3
O=C(COC(=O)c1ccc(F)cc1Cl)NC1CC1	0.4%	-3.7	13	3	-10	-0.2
O=C(c1ccc(S(=O)(=O)N2CCOCC2)cc1)N(c1ccccc1)C1C=CS(=O)(=O)C1 (stereo not drawn)	-0.5%[38.3 µM]	0.1	-1	-7	2	-0.4

An unsorted share of the library; any-hit rate near 1.3%.
